From PubChem
NS5 inhibitors = Dengue-2 NS5 methyltransferase inhibitors, primary screen, biochemical, confirmation dose response (AID 588689); Dengue-2 NS5 methyltransferase capping enzyme assay, biochemical; higher % means a stronger effect; one-dose inhibition, % at 25 µM; IC50 in µM for titrated hits; 0.3% of 340,000 active; in the data active = a potency from the dose series; inconclusive = inhibition above about 29% without an active follow-up result
KOR beta-arrestin = kappa opioid receptor activators – cell-based, luminescence, uHTS, primary screen (AID 1777) | 0.02% of 280,000 active | KOR beta-arrestin recruitment, luminescence; higher % means a stronger effect | activation, % at 10 µM, or EC50 in µM where a hit was titrated; in the data active = activation above about 50%, passing the limit was not always enough; note: a part of the inactive calls stands beside numbers as strong as those of hits
West Nile antiviral = inhibition of WNV-induced cytopathic effect – cell-based, CPE readout (AID 1621); 0.02% of 290,000 active; CPE inhibition, % at 10 µM; hits with a dose series show IC50 in µM; West Nile virus-infected cells, CPE inhibition; higher % means a stronger effect; in the data active = a potency from the dose series; inconclusive = CPE inhibition mostly from about 3.7% at the one dose, without a potency; inactive = the rest, 99 in 100 with CPE inhibition below about 2.2%; note: strong numbers were not always called active
GPR55 beta-arrestin = GPR55 agonists via beta-arrestin recruitment, primary screen, imaging, U2OS cells, beta-arrestin-GFP redistribution (AID 1961); U2OS GPR55 beta-arrestin-GFP redistribution imaging; higher % means a stronger effect; activation, % at 10 µM, or EC50 in µM where a hit was titrated; 0.048% of 290,000 active;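 active = activation above 40% with more than 50 cells counted in the well; inconclusive = wells holding fewer than 50 cells, flagged as toxic or sparse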;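 note: U2OS osteosarcoma cells stably expressing GPR55 and beta-arrestin-GFP; plate controls were DMSO negative control for no effect and LPI positive control for full effect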
HIV peptide binding = inhibitors of HIV fusion peptide binding, primary screen, biochemical, uHTS, fluorescence dequenching (AID 1986); cell-free peptide binding, fluorescence dequenching, 30 min; higher % means a stronger effect; inhibition, % at 20 µM; hits with a dose series show IC50 in µM; 0.3% of 290,000 active; in the data active = inhibition mostly above about 52%, no sharp cut-off; inactive = mostly below about 76%; note: some results filed as inactive read as strong as hits
GPR55 antagonists = GPR55 antagonists blocking LPI-driven arrestin recruitment, primary screen, imaging, U2OS, beta-arrestin-GFP, LPI agonist (AID 2013); inhibition, % at 10 µM; hits with a dose series show IC50 in µM; 0.13% of 290,000 active; U2OS GPR55 beta-arrestin-GFP translocation imaging, LPI antagonism; higher % means a stronger effect;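 active = spots per cell inhibited over 60%, with over 100 cells counted and total cytoplasm intensity under 500,000; inconclusive = wells with under 100 cells, flagged as likely toxic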;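 note: U2OS cells stably carrying GPR55 and arrestin-GFP stimulated by 5 µM LPI near EC80; imaged beta-arrestin-GFP aggregate spots per cell after agonist stimulation; plate controls were LPI-stimulated DMSO wells for no effect and DMSO wells without LPI for full effect; some results filed as inactive read as strong as hits; confirmed hits need IC50 under 10 µM and bright autofluorescent wells are also inconclusive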
GPR35 antagonists = inhibition of zaprinast-stimulated GPR35 beta-arrestin translocation – imaging, U2OS, beta-arrestin-GFP, zaprinast agonist, primary screen (AID 2058); U2OS GPR35 beta-arrestin-GFP translocation imaging, zaprinast antagonism; higher % means a stronger effect; inhibition, % at 10 µM, or IC50 in µM where a hit was titrated; 0.052% of 290,000 active;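 active = inhibition of at least 50% with at least 30 cells and total cytoplasm GFP at most 10,000,000; inconclusive = under 30 cells or total GFP of 10,000,000 plus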
NS5 inhibitors pilot replicate = also measured in NS5 inhibitors; calls as there; inhibition, %; measured here: pilot screen replicate inhibition
* marks the source's active call; other numbers are inactive results; ? = inconclusive; . = no result given. A portion of the library; rates above refer to the full screens.

SMILES	NS5 inhibitors	KOR beta-arrestin	West Nile antiviral	GPR55 beta-arrestin	HIV peptide binding	GPR55 antagonists	GPR35 antagonists	others
Cc1cccc(OCC(=O)NC(=S)N2CCCc3ccccc32)c1	-0.7%	-1.8%	-0.3%	-0.1%	-3.3%	.	3.1%
O=C(NCc1ccco1)c1ccccc1NS(=O)(=O)c1ccc(Br)s1	26.4%	4.1%	0.0%	-0.1%	25.4%	.	-3.1%	NS5 inhibitors pilot replicate=0.9
CC(C)OCC(O)CN1CCNCC1 (stereo not drawn)	-2.4%	0.8%	1.2%	0.3%	-0.5%	-3.9%	2.0%
N#CNC1=NCN(CCc2ccccc2)CN1	-2.2%	-1.0%	0.1%	-0.1%	0.5%	29.3%	10.5%
CCN1CCN(C(c2cccs2)C(C)NC(=O)c2cccnc2)CC1 (stereo not drawn)	-12.8%	0.0%	-0.8%	0.5%	-2.5%	5.5%	0.3%
COc1ccc(OC2C(=O)N(CCc3ccc(OC)c(OC)c3)C2c2ccc3c(c2)OCO3)cc1 (stereo not drawn)	0.6%	-4.1%	0.8%	-0.4%	0.8%	6.2%	-1.0%
CCOC(=O)c1ccc(NC(=O)C2(c3ccccc3)CCCC2)cc1	-1.3%	11.1%	0.2%	-0.1%	1.4%	9.3%	7.0%
O=C1c2ccccc2C(=O)c2c1ccc(C(=O)N1CCCCC1)c2NCCO	-0.7%	-0.5%	0.0%	0.3%	-6.2%	8.5%	4.2%
COc1ccc(C2C(C(C)=O)=C(O)C(=O)N2CCCn2ccnc2)cc1 (stereo not drawn)	-1.7%	6.2%	0.4%	-0.1%	0.7%	9.3%	-5.4%
O=C(CC1CCCCC1)Nc1ncn[nH]1	0.0%	-0.7%	0.1%	0.3%	-4.4%	5.5%	17.1%
O=S(=O)(/N=C(\Sc1ccc(Cl)cc1)c1ccccc1)c1ccccc1	-0.8%	3.9%	0.3%	-0.1%	-0.8%	26.5%	10.7%
COC(=O)c1cn(CC(=O)N2CCCCC2C)c2ccccc12 (stereo not drawn)	-7.1%	3.2%	0.1%	-0.2%	0.3%	20.7%	-0.3%
Cc1ccc(S(=O)(=O)N/N=C\c2ccccc2OCc2ccccc2)cc1	-2.8%	1.4%	?	0.5%	0.4%	9.6%	14.9%
CS(=O)(=O)N1CCN(c2ccc([N+](=O)[O-])c(N3CCOCC3)c2)CC1	-3.4%	1.6%	.	-0.1%	-2.1%	15.8%	10.8%
CCOC(=O)C1=C(O)C(=O)N(c2ccc(S(N)(=O)=O)cc2)C1c1ccc(OC)cc1 (stereo not drawn)	-4.8%	-2.1%	0.1%	1.0%	-2.3%	12.4%	10.5%
CC(C)C(=O)Nc1sc2c(c1-c1nc3ccccc3[nH]1)CCCC2	-4.8%	4.8%	0.0%	-0.3%	-0.6%	13.6%	11.3%
O=C(Cc1ccc(Cl)cc1)Nc1ccc(N2CCN(C(=O)c3ccco3)CC2)cc1	10.1%	-0.6%	-0.2%	-0.1%	2.2%	4.5%	2.1%
O=C(O)CCCC(=O)Nc1ccc(Sc2ccc([N+](=O)[O-])cc2)cc1	-3.4%	-1.6%	0.4%	-0.1%	8.2%	-4.2%	1.3%
CC1(C)CC(=O)C(C(C2=C(O)CC(C)(C)CC2=O)c2ccco2)C(=O)C1 (stereo not drawn)	-52.5%	0.0%	0.6%	-0.1%	7.0%	19.9%	11.2%
CCc1cc(=O)oc2cc(OCC(=O)N3CCCc4ccccc43)ccc12	-2.8%	-0.9%	0.3%	0.2%	-1.2%	6.7%	-7.5%
COc1ccc(C(=O)Nc2cc3c(cc2OC)CCCC3)cc1Br	0.8%	2.9%	.	0.5%	-0.6%	8.2%	-1.7%
COc1ccc(C(=O)N/C(=C/c2cccs2)c2nc3ccccc3[nH]2)cc1OC	5.3%	3.6%	-0.5%	0.5%	1.7%	5.7%	-5.2%
CC(=O)c1c(N2CCN(C)CC2)[nH]c(-c2ccccc2)nc1=S	-1.1%	-0.4%	0.5%	0.0%	-2.8%	8.4%	-3.4%
CCc1cccc2c(C=C(C#N)C#N)cn(CC(=O)N3CCCCCC3)c12	8.6%	4.9%	-0.6%	0.2%	3.9%	14.4%	-1.9%
COc1ccc(N2CCN(C(=O)c3ccc(OCc4c(C)noc4C)c(OC)c3)CC2)cc1	-4.1%	4.8%	0.4%	-0.3%	-2.6%	-2.1%	7.2%
Cc1cccc(CSc2nnc(NC(=O)c3ccco3)s2)c1	-1.4%	2.3%	0.8%	0.1%	-3.1%	19.4%	-0.7%
CC1(C)CN(c2ccccc2)N(C(=O)c2ccc(F)cc2)C1=O	2.4%	-0.7%	0.3%	-0.2%	-0.9%	23.9%	3.2%
O=C(NC1CCCCC1)N1CCCC(c2nc(-c3cccs3)no2)C1 (stereo not drawn)	4.0%	1.5%	0.3%	-0.1%	0.2%	9.6%	11.2%
CCOC(=O)c1ccc(N=C2S/C(=C\c3cc(C)n(-c4cccnc4)c3C)C(=O)N2C)cc1	-2.0%	-5.2%	0.1%	0.6%	-3.1%	4.9%	0.8%
Cc1ccc(S(=O)(=O)/N=C(\c2ccc(F)cc2)n2c(C)nc3ccccc32)cc1	4.3%	-3.7%	0.8%	-0.1%	-0.5%	-5.2%	-1.6%

The last 5 records of the part before lead into the next.
SMILES	NS5 inhibitors	KOR beta-arrestin	West Nile antiviral	GPR55 beta-arrestin	HIV peptide binding	GPR55 antagonists	GPR35 antagonists	others
Cc1cccc(CSc2nnc(NC(=O)c3ccco3)s2)c1	-1.4%	2.3%	0.8%	0.1%	-3.1%	19.4%	-0.7%
CC1(C)CN(c2ccccc2)N(C(=O)c2ccc(F)cc2)C1=O	2.4%	-0.7%	0.3%	-0.2%	-0.9%	23.9%	3.2%
O=C(NC1CCCCC1)N1CCCC(c2nc(-c3cccs3)no2)C1 (stereo not drawn)	4.0%	1.5%	0.3%	-0.1%	0.2%	9.6%	11.2%
CCOC(=O)c1ccc(N=C2S/C(=C\c3cc(C)n(-c4cccnc4)c3C)C(=O)N2C)cc1	-2.0%	-5.2%	0.1%	0.6%	-3.1%	4.9%	0.8%
Cc1ccc(S(=O)(=O)/N=C(\c2ccc(F)cc2)n2c(C)nc3ccccc32)cc1	4.3%	-3.7%	0.8%	-0.1%	-0.5%	-5.2%	-1.6%
Cc1c(OCC(F)(F)F)ccnc1CSc1nc2ccccc2[nH]1	-10.2%	0.0%	-0.9%	-0.2%	-1.5%	-5.3%	5.3%
O=C(NCCN1CCOCC1)c1ccc(Cl)cc1[N+](=O)[O-]	-2.7%	0.3%	0.1%	0.2%	-2.7%	9.7%	0.9%
CC1CCCN(CC(O)COCC2COc3ccccc3O2)C1 (stereo not drawn)	-2.1%	0.6%	-0.2%	-0.1%	-2.1%	4.6%	0.9%
Clc1ccc(-c2noc(CN3CCN(c4ccccc4)CC3)n2)cc1	0.7%	-2.4%	-0.3%	0.1%	-1.7%	-9.1%	-4.5%
NC(=O)CN1C(=O)C2C3c4ccccc4C(c4ccccc43)C2C1=O (stereo not drawn)	0.0%	-0.3%	0.1%	-0.1%	-2.4%	8.1%	-4.1%
Cc1ccc2nc(C(C)O)[nH]c2c1 (stereo not drawn)	-7.4%	4.5%	-0.3%	0.2%	1.9%	2.8%	7.9%
Cc1ccc(NC(=O)c2ccc(CSc3nnc(C)s3)cc2)cc1	1.1%	10.6%	-0.2%	0.0%	-3.0%	2.8%	13.1%
CCOc1ccccc1Nc1nc(-c2sc(NC(=O)c3cccc(Cl)c3)nc2C)cs1	-3.3%	3.5%	0.4%	0.2%	-2.7%	16.8%	-5.1%
O=C(Nc1ccccc1Cl)c1ccn[nH]1	2.1%	-1.4%	-0.1%	-0.1%	-4.1%	-0.4%	9.1%
CNC(=S)N1N=C(c2ccc(OC)cc2)CC1c1ccc(N(C)C)cc1 (stereo not drawn)	-1.6%	3.5%	-0.4%	-0.1%	-1.5%	3.6%	13.3%
COc1cc(C2C(C#N)=C(N)Oc3cc(O)ccc32)cc(OC)c1OC (stereo not drawn)	-4.9%	4.6%	3.0%	0.2%	7.3%	-26.2%	16.3%
O=C(c1ccco1)N(Cc1ccc([N+](=O)[O-])cc1)c1ccc(Br)cc1	-6.3%	-0.8%	-1.0%	-0.1%	-2.4%	15.0%	-6.9%
Cc1nc2c(C)cccn2c1/C(O)=C1\C(=O)C(=O)N(CCN(C)C)C1c1ccncc1 (stereo not drawn)	-1.7%	1.3%	0.2%	0.1%	0.3%	4.5%	-2.9%
COc1ccc(C(=O)Nc2ccc(NC(=O)c3cnccn3)cn2)cc1	-4.2%	2.5%	-0.1%	0.2%	-1.4%	14.3%	-5.0%
Cc1cc(C)c(S(C)(=O)=O)c(Oc2ccc(F)cc2)n1	-13.0%	-4.5%	.	-0.1%	-1.1%	5.5%	9.1%
N#C/C(C(=O)Oc1ccccc1)=C1/Nc2ccccc2-c2ccccc21	7.2%	-4.1%	.	-0.1%	2.5%	14.4%	12.7%
CCNc1nc(Oc2ccc(=O)n(-c3ccccc3)n2)nc(N(C)C)n1	-2.2%	5.5%	0.0%	0.0%	-1.3%	-18.3%	2.4%
O=C(Nc1ccc(Cl)cc1)C1CCN(C(=O)NC2CCCCC2)CC1	-1.6%	-3.6%	-0.1%	0.8%	2.8%	-3.0%	2.9%
CCCC(=O)Nc1c(-c2cccs2)c(=O)c2ccccc2n1CC	.	1.4%	.	0.3%	0.6%	19.6%	4.0%
Nc1n[nH]c(-c2ccc(Br)cc2)c1Cl	-10.0%	1.4%	-0.1%	0.4%	2.0%	7.7%	-7.8%
CCOC(=O)Cc1nnc(NC(=O)CSc2ccc(C)cc2)s1	-1.3%	-2.2%	-0.6%	0.0%	3.1%	0.6%	3.1%
Cc1ccc(C)c(Nc2c([N+](=O)[O-])cc(C(=O)N3CC(=O)Nc4ccccc43)cc2[N+](=O)[O-])c1	7.5%	-1.1%	0.5%	-0.1%	1.2%	1.8%	10.2%
CCC1CCCCN1CCn1c(=S)[nH]c2cc(OC)c(OC)cc2c1=O (stereo not drawn)	-6.3%	-0.7%	0.9%	-0.3%	3.5%	23.6%	20.6%
Cc1cc(NC(=O)COC(=O)c2ccc(NS(=O)(=O)c3ccc(C)c(C)c3)cc2)no1	6.0%	-1.0%	0.4%	0.3%	1.1%	7.0%	-4.5%
CCn1c(SCc2c(Cl)cccc2Cl)nnc1-c1nn(-c2ccccc2)ccc1=O	4.0%	-0.1%	.	0.2%	-3.3%	25.0%	-9.0%
Cc1[nH]c2ccccc2c1C(=O)/C=C/c1ccccc1	-6.0%	2.1%	1.7%	-0.1%	2.2%	-0.8%	8.0%
C=CCn1ncc(OC)c(Cl)c1=O	1.6%	-2.3%	0.1%	0.0%	1.6%	-9.5%	-3.1%
CC(=O)NS(=O)(=O)c1ccc(NC(=S)NC(=O)c2ccco2)cc1	-1.5%	1.3%	-0.2%	-0.1%	1.1%	10.3%	-4.5%
C=CCOC(=O)C1=C(C)NC(SCC(=O)Nc2nccs2)=C(C#N)C1c1ccc(Cl)cc1 (stereo not drawn)	-6.4%	1.7%	0.8%	0.0%	1.1%	9.9%	-1.0%
O=C(NC(Cc1c[nH]c2ccccc12)c1nnc2n1CCCCC2)c1ccccc1Cl (stereo not drawn)	-7.3%	5.1%	-0.2%	-0.1%	0.3%	-3.7%	-1.4%
